VACV mCherry inh – qHTS for Stage-Specific Inhibitors of Vaccinia Orthopoxvirus: mCherry Reporter Primary qHTS | Vaccinia virus mCherry reporter infection, fluorescence; about a quarter of the inactives have no number | Potency, µM (top dose mostly 36.5 µM), for inactives: at the highest dose activity change, negative = inhibition, usual class: inhibitors | actives 0.63% (n = 310,000) | AID 720579, 2013; active = well fitted inhibition curve with a large enough effect; inconclusive = small, poorly fitted or top-dose-only effect; inactive = no such curve, though single readings can be large or run the other way; tested in A549 cells; further: nearly all actives have a fitted effect of over 35% in size; inactives centre near -10
Vaccinia Venus – qHTS for Stage-Specific Inhibitors of Vaccinia Orthopoxvirus: Venus Reporter Primary qHTS; Vaccinia virus Venus reporter expression, fluorescence; Potency, µM (titrated, usually from 36.5 µM), inactives show at the highest dose activity change, negative = inhibition, most hits filed as inhibitors; actives 0.46% (n = 330,000); active means well fitted inhibition curve with a large enough effect; inconclusive means small, poorly fitted or top-dose-only effect; inactive means no such curve, though single readings can be large or run the other way; tested in A549 cells; further: nearly all actives have a fitted effect of over 30% in size; inactives centre near -10
* marks the source's active call; other numbers are inactive results; i = inactive; u = inconclusive; x = not tested or not shown; & = joins results of further samples; [ ] = dose if it differs, or a comment. On the % scale 0 is the no-effect control and ±100 the full control effect; potency means the concentration at half of the fitted maximal effect.

SMILES | VACV mCherry inh | Vaccinia Venus
O=C(CCN1C(=O)c2ccccc2S1(=O)=O)Nc1ccc(F)c(F)c1F | -5% | -12%
CCCCNC(=S)Nc1ccc(C(F)(F)F)cc1 | u | -29%
O=C(Nc1nnc(C2=COCCO2)o1)C1CCCCC1 | i | -14%
O=C(NCc1cccc(Br)c1)c1cc(-c2ccccc2)nn1CC1CC(c2cccc([N+](=O)[O-])c2)=NO1 (stereo not drawn) | i | -17%
Cc1c(C(=O)OC2CCC(C)CC2)[nH]c2c1C(=O)CC(c1ccccc1Cl)C2 (stereo not drawn) | -19%[7.34 µM] | -19%[7.34 µM]
COc1ccccc1C(c1c(O)cc(C)n(Cc2ccco2)c1=O)N1CCCCC1 (stereo not drawn) | -16% | -8%
O=C(NCCOC(=O)c1ccc([N+](=O)[O-])cc1)c1cccnc1 | i | -4%
Cc1ccc(C(=O)CC(c2cccs2)S(=O)(=O)c2ccc(C)cc2)cc1 (stereo not drawn) | i | -12%
COCOc1ccc(C2CC(=O)c3c(OCOC)cc(OCOC)cc3O2)cc1 (stereo not drawn) | -1% | 2%
Cc1cccn2c(=O)cc(COc3cccc(NC(=O)c4ccccc4F)c3)nc12 | -8% | -12%
O=c1cc(C=NNc2ccc([N+](=O)[O-])cc2)[nH]c(=O)[nH]1 | i | -2%
O=C(c1ccc(Cl)c(S(=O)(=O)N2CCCC2)c1)N1CCN(c2ccccc2F)CC1 | i | -18%
CC(C)(C)OC(=O)N1CCC[C@H]1C(=O)N/N=C/c1ccc2ncccc2c1 | i | -19%
COc1ccc(C2=CN(Cc3ccccc3)C(c3ccccc3)CC2=O)cc1 (stereo not drawn) | i | -18%
O=C(CCNC(=O)c1ccc([N+](=O)[O-])cc1)NC1CCCCCC1 | -17% | 1%
O=C(COc1ccccc1Cl)Nc1nc2c(s1)CCCC2 | 20% | 9%
O=C(CSc1nnc(-c2ccncc2)o1)c1ccc2c(c1)OCCO2 | 0% | -10%
CS(=O)(=O)Nc1cccc(-c2cncnc2NCc2cccs2)c1 | -15% | -26%
CCc1nc(SCC(=O)Nc2c(C)n(C)n(-c3ccccc3)c2=O)n[nH]1 | x | -15%
O=C(Nc1ccnn1C1CCN(C2CCCC2)CC1)c1ccccc1 | -10% | -6%
Cc1nc(SCC(N)=O)[nH]c(=O)c1CCC(C)C | -6%[1.46 µM] | -16%
O=C(CCNc1ccc(F)cc1)c1ccco1 | x | -28%
O=C(Nc1nc2c(s1)CCCC2)c1cccs1 | -22% | -26%
O=C(c1cc(-c2ccccn2)nc2c(Cl)cccc12)N1CCN(C(=O)C2CCCO2)CC1 (stereo not drawn) | x | u
CCCCn1nc(C(=O)N(C)CC(=O)Nc2ccc(F)c(F)c2F)ccc1=O | i | -6%
COc1ccc(-c2noc3c2-c2nc(-c4ccccc4Cl)sc2CC3)cc1 | -18% | -7%
Cc1ccsc1C(=O)OCC(=O)NC1CCS(=O)(=O)C1 (stereo not drawn) | i | -7%
Cc1ccccc1-c1csc(C(O)(c2ccccc2)C(F)(F)F)n1 (stereo not drawn) | -13% | -9%
Cc1oc(-c2cccs2)nc1CS(=O)CC(=O)NC1CCCCCC1 (stereo not drawn) | -17% | -9%
COc1ccc(-c2cnc(C)o2)cc1S(=O)(=O)Nc1ccc(OC(F)(F)F)cc1 | -8% | 3%
CCN(CC(=O)NCc1ccc(Cl)cc1)C(=O)COc1cccc(Cl)c1 | -9% | -9%
CCn1c(CCn2ccnc2C)n[nH]c1=S | -11% | -3%
O=[N+]([O-])c1cc2c(cc1Br)-c1ccccc1C2 | u | -16%
C=C(C)CSc1nc2nc(C)cc(C)n2n1 | i | -4%
CCN1CCN(c2ncnc3scc(-c4ccc(OC)cc4)c23)CC1 | -17% | -6%
COc1ccc(NC(=O)C2CCC(CNS(=O)(=O)c3ccc4c(c3)C(C)(C)C(=O)N4C)CC2)cc1 (stereo not drawn) | -8% | -14%
COc1ccc(C(CC(=O)Nc2ccc(OC)c(OC)c2)N2Cc3ccccc3C2=O)cc1 (stereo not drawn) | -8% | -13%
Cc1ccc(C)c(CN2CCC(CNC(=O)Cn3ncc4c([nH]c5ccccc54)c3=O)CC2)c1 | -2% | -11%
C/C(=N\NC(=O)c1c[nH]c2ccccc12)c1ccc(C)s1 | -26% | -11%
Cc1nc(NC(=O)c2cccc(-c3cc4ccccc4oc3=O)c2)ccc1Br | -7% | -2%
O=C(COC(=O)c1ccc(Cl)nc1)Nc1ccc(Cl)cc1 | -3% | -5%
CC1CCCC(NC(=S)NC(=O)c2ccccc2Br)C1C (stereo not drawn) | -7% | -19%
N/C(=N\OC(=O)/C=C/c1ccccc1)c1ccccn1 | i | 3%
CC1CCCN(S(=O)(=O)c2ccc(NC(=O)Cn3nnc(-c4ccccc4F)n3)cc2)C1 (stereo not drawn) | i | -19%
COC(=O)CCC/C=C1\SC[C@@H](NC(=O)c2ccccc2)C1NC(C)=O (stereo partly drawn) | i | -22%
CC1OC(C(C)(C)C)Cc2[nH][nH]c(=O)c21 (stereo not drawn) | i | 6%
Cc1nn(CC(=O)Nc2ccc3c(c2)nc(CN2CCCCC2)n3C)c(=O)c2ccccc12 | i | -19%
CCOc1ccc(CCNC(=O)CS(=O)Cc2nc(-c3ccc(C)cc3)oc2C)cc1OCC (stereo not drawn) | -17% | -20%
CCN(CC)C(=O)CSc1nnc(CSc2ncccn2)n1C | -13% | -1%
COC(=O)C1=C(N)Oc2cc(C)n(Cc3cccnc3)c(=O)c2C1c1cc(OC)ccc1OC (stereo not drawn) | x | -15%

Additional records:
SMILES | VACV mCherry inh | Vaccinia Venus
COc1ccccc1NC(=O)c1sc2ncn(Cc3cccc4ccccc34)c(=O)c2c1C | i | -8%
Cc1snc(SCC(=O)c2ccc([N+](=O)[O-])cc2)c1C#N | 5% | 1%
O=C(N/N=C/c1cc([N+](=O)[O-])ccc1Cl)c1cnccn1 | u | u
CC(C)CCNC(=O)CSc1c2c(nc3ccc(Cl)cc13)CCCC2 | -2% | -9%
COc1ccc(S(=O)(=O)N(C)CC(=O)NCc2ccc3c(c2)OCO3)cc1 | -1% | -10%
CCN(CC(=O)Nc1ccc(C(=O)OC)cc1)C1CCCCC1 | -29% | -6%
COc1cc(/C=C2/NC(=O)NC2=O)cc(Br)c1OCc1ccccc1 | -23% | -13%
CCOC(=O)c1c(NC(C)=O)c2c3c(sc2n1Cc1c(C)cc(C)cc1C)CCCC3 | -22% | -19%
CCOC(=O)c1c(C)oc2nc(C)nc(N3CCN(c4ccc(OC)cc4)CC3)c12 | -6% | -29%
Cc1cc(C)nc(N(C#N)Cc2cccc(Cl)c2)n1 | -23% | -18%
COc1ccc(Nc2c(-c3ccc(C)o3)nc3cc(C)ccn23)cc1 | -10% | -10%
CCCNc1nc(Cl)nc(NC(C)(C)C)n1 | -12% | -14%
Cc1cccc(NC(=O)Cn2c(=O)n(Cc3ccco3)c(=N)c3c4c(sc32)COC(C)(C)C4)c1 | x | -4%
CC(=O)NCC(=O)OCN1C(=O)c2ccccc2C1=O | x | -8%
O=C(CCn1cncn1)N1CCCC(N2CCN(c3ccc(F)cc3)CC2)C1 (stereo not drawn) | -8% | -4%
CC(C)(C)n1nnnc1C(c1ccccc1)N1CCCN(Cc2ccc(F)cc2)CC1 (stereo not drawn) | -5% | 0%
O=C(COC(=O)c1cccnc1SCC(=O)NCc1ccccc1)NCc1ccccc1 | -25% | -18%
Cn1nccc1CNC(=O)c1ccnn1C | -16% | 0%
COc1ccc(-c2nc(C)c(C(C)=O)n2O)cc1OC | x | -19%
BrC(=C\c1ccccc1)/C=N/Nc1nc(N2CCOCC2)nc(N2CCOCC2)n1 | -2% | -16%
CCN(CC(=O)Nc1c(F)cccc1F)C(=O)c1cccc(-n2cccc2)c1 | -16% | -7%
CCOc1ccc(N=Cc2ccc(N(C)C)cc2)c(O)c1 | -9% | 21%
Cc1ccc(CN(C)C(=O)c2ccc(S(=O)(=O)N3CCCCCC3)cc2)o1 | -6% | 4%
Cc1cccc(OCCn2c(=O)n(C)c3ccccc32)c1 | -23% | -10%
O=S(=O)(NCc1ccccc1)c1ccc(-c2cnc(C3CC3)o2)cc1 | -29% | -8%
O=C(CN1CCN(S(=O)(=O)c2ccc(Br)cc2)CC1)Nc1ccc(F)cc1F | x | -8%
COc1ccc(/C=C/C(=O)Oc2cccc(/C=N/NC(=O)COc3c(C)cccc3C)c2)cc1 | x | -7%
CN(Cc1ccon1)C(=O)CC1C(=O)NCCN1Cc1ccc(Cl)c(F)c1 (stereo not drawn) | -8% | -5%
COc1cc(C2c3cc4c(cc3C(O)[C@H]3COC(=O)C23)OCO4)cc(OC)c1OC (stereo partly drawn) | -18%&-18% | -20%&-27%
COc1ccccc1CNC(=O)c1ccc(-n2c(C)cc3c2CCCC3)cc1 | -18% | -15%
Cc1ccc(NC(=O)CSc2nc(N)c3cc4c(nc3n2)CCCC4)cc1 | u | u
COc1ccc(N2CCN(C(=O)c3cccnc3SCc3cccc(Br)c3)CC2)cc1 | -7% | -17%
O=C(Nc1c(-c2ccc3c(c2)OCO3)[nH][nH]c1=O)c1cccc(C(F)(F)F)c1 | 25% | 2%
COc1ccc(NC(=S)SC)cc1OC | -25% | -28%
CCOc1ccc(OCC(=O)N2CCN(S(=O)(=O)c3ccccc3)CC2)cc1 | -11% | -18%
Cc1ccc(Cl)cc1NC(=O)CN1C(=O)c2cccc3cccc1c23 | 28% | 27%
COc1ccc(NC(=O)c2c(NCc3cccs3)sc3c2CCCCC3)c(OC)c1 | -16% | 0%
COCCCN1C(=O)C(CC(=O)NCC2CCCCC2)CC(C(=O)N2CCOCC2)=C1C (stereo not drawn) | -14% | 4%
CCN1C(C(=O)c2ccccc2)=C(OC(=O)COc2ccccc2)c2ccccc2S1(=O)=O | -29% | -30%
CCOC(=O)C1(CC2CCCCO2)CCN(C(=O)Nc2ccccc2SC)CC1 (stereo not drawn) | -7% | -1%

One compound at a time, from the list above. Order of screens: VACV mCherry inh, Vaccinia Venus
Shown for COc1ccc(/C=C/C(=O)Oc2cccc(/C=N/NC(=O)COc3c(C)cccc3C)c2)cc1 → x, -7%
Shown for COc1ccc(-c2nc(C)c(C(C)=O)n2O)cc1OC → x, -19%

Going on with the list.
SMILES | VACV mCherry inh | Vaccinia Venus
CCn1ncc(Br)c1C(=O)Nc1sc2c(c1C(N)=O)CCC2 | -4% | -9%
CC(=O)Nc1ccc(C(=S)NCCCO)cc1 | -16% | -9%
COc1ccc(C2C(C#N)=C(N)OC(C(C)(C)C)=C2C#N)cc1OC (stereo not drawn) | x | -6%
Cc1ccc(-c2cnc3c(c2)C(=O)N([C@H](C)CO)C[C@@H](C)[C@@H](CN(C)C(=O)Cc2ccccc2)O3)cc1 | -24% | u
Cc1cc(C([O-])=C(C(=S)Nc2ccc(F)cc2)[n+]2ccccc2)c(C)n1-c1ccc(F)cc1 | -25% | 3%
O=C1c2cc(N3CCCC3)c([N+](=O)[O-])cc2C(=O)N1c1ccccc1 | -14% | -8%
Cc1ccc(NC(=O)C(=O)NCC(c2cccnc2)N2CCN(Cc3ccccc3)CC2)cc1Cl (stereo not drawn) | i | -27%
CCCCc1nnc(NC(=O)c2cccc(S(=O)(=O)N3CCN(C)CC3)c2)s1 | -2% | -9%
CCn1cc(C(=O)NCc2ccco2)c(=O)c2ccc(C)nc21 | i | -6%
O=C(O)c1cc(-c2cccc([N+](=O)[O-])c2)n[nH]1 | i | -6%
O=C1C2C3C=CC(CC3)C2S(=O)(=O)C2C3C=CC(CC3)C12 (stereo not drawn) | i | -13%
COc1ccccc1C(=O)Nc1cc2c(cc1C(=O)O)OCCCO2 | i | -13%
Cc1ccc(OCCn2c(=O)sc3ccccc32)cc1 | x | -11%

Ordered by heavy-atom count (high to low): 14 of the compounds above
SMILES | VACV mCherry inh | Vaccinia Venus
Cc1ccc(-c2cnc3c(c2)C(=O)N([C@H](C)CO)C[C@@H](C)[C@@H](CN(C)C(=O)Cc2ccccc2)O3)cc1 | -24% | u
COc1ccc(/C=C/C(=O)Oc2cccc(/C=N/NC(=O)COc3c(C)cccc3C)c2)cc1 | x | -7%
COc1ccccc1NC(=O)c1sc2ncn(Cc3cccc4ccccc34)c(=O)c2c1C | i | -8%
COc1ccc(N2CCN(C(=O)c3cccnc3SCc3cccc(Br)c3)CC2)cc1 | -7% | -17%
COc1ccccc1C(c1c(O)cc(C)n(Cc2ccco2)c1=O)N1CCCCC1 (stereo not drawn) | -16% | -8%
COc1ccc(-c2cnc(C)o2)cc1S(=O)(=O)Nc1ccc(OC(F)(F)F)cc1 | -8% | 3%
CCN(CC(=O)Nc1c(F)cccc1F)C(=O)c1cccc(-n2cccc2)c1 | -16% | -7%
COc1ccc(-c2noc3c2-c2nc(-c4ccccc4Cl)sc2CC3)cc1 | -18% | -7%
COC(=O)CCC/C=C1\SC[C@@H](NC(=O)c2ccccc2)C1NC(C)=O (stereo partly drawn) | i | -22%
COc1ccc(C2C(C#N)=C(N)OC(C(C)(C)C)=C2C#N)cc1OC (stereo not drawn) | x | -6%
CCn1cc(C(=O)NCc2ccco2)c(=O)c2ccc(C)nc21 | i | -6%
O=C(N/N=C/c1cc([N+](=O)[O-])ccc1Cl)c1cnccn1 | u | u
N/C(=N\OC(=O)/C=C/c1ccccc1)c1ccccn1 | i | 3%
O=C(CCNc1ccc(F)cc1)c1ccco1 | x | -28%

Screens deposited in PubChem by National Center for Advancing Translational Sciences (NCATS).
